2A StopGo: FMDV 2A StopGo reporter, luciferase signal | human cells with a luciferase reporter of 2A StopGo recoding; control for the full effect not named in the record | Potency, µM (doses to about 57.9 µM), without a hit: top-dose signal change, negative = less light | actives 1.2% (n = 410,000) | AID 1159524; active = well fitted falling curve with a large enough effect; inconclusive = small, poorly fitted or top-dose-only effect; inactive = no such curve, though single readings can be large or run the other way; tested in HEK293T cells; further: on the % scale 0 is the no-effect control and ±100 the full control effect; nearly all actives have a fitted effect of over 45% in size; luciferase light after 4 h
SARS PLP yeast: blocks SARS-CoV papain-like protease in a yeast assay | S. cerevisiae expressing SARS-CoV PLpro, growth rescue; control for the full effect not named in the record | Potency, µM (doses to about 32.9 µM), inactives show at the top dose activity, positive = growth rescue | actives 0.19% (n = 330,000) | AID 485353; active means well fitted rising curve with a large enough effect; inconclusive means small, poorly fitted or top-dose-only effect; inactive means no such curve, though single readings can be large or run the other way; further: 0% is about no effect; nearly all actives have a fitted effect of over 55% in size; growth read by luminescence after 48 h
RE007 growth inh: less growth of the S. pombe RE007 Vpr strain; S. pombe RE007 Vpr strain, BacTiter-Glo ATP luminescence, 24 h; control for the full effect not named in the record; Potency, µM (series often up to 92.2 µM), for the others: at the highest dose activity change, negative = less growth; actives 0.21% (n = 360,000); active = well fitted falling curve with a large enough effect; inconclusive = small, poorly fitted or top-dose-only effect; inactive = no such curve, though single readings can be large or run the other way;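 further: on the % scale 0 is the no-effect control and ±100 the full control effect; nearly all actives have a fitted effect of over 50% in size; the assay follows cell death caused by Vpr and the record does not say whether a fall means rescue or toxicity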
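Fission yeast RE007 carrying one integrated HIV-1 vpr copy, seeded at OD 0.01 in PMG+AL medium with 23 nL pinned compound. Grown 24 h at 30 degrees; viability read by BacTiter-Glo luminescence after 5 min.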
* hit, by the source's call; u = inconclusive; & = joins results of further samples; [ ] = another dose, or the depositor's remark. Potency means the concentration at half of the fitted maximal effect. An excerpt, so the mix of outcomes need not match the whole.

Preview:
SMILES | 2A StopGo | SARS PLP yeast | RE007 growth inh
C[C@@H]1COC(=O)[C@@H](CC(=O)OC(C)(C)C)C/C=C\C[C@@H](CC(=O)NCCO)C(=O)N1 | -13% | 16% | -12%
Cc1ccccc1C(=O)NC1CCN(CC(=O)Nc2ccc3c(c2)OCO3)CC1 | 8% | -3% | 3%
CN1CCN(C(=O)c2ccc3c(c2)S(=O)(=O)c2ccccc2C3=O)CC1 | -13% | -1% | -16%
COC(=O)C1=C(c2ccc(F)cc2OCc2ccccc2)C[C@@H]2CC[C@H]1N2C(=O)NCCN1CCOCC1 | -1% | 2% | -2%
CCOc1ncccc1C(=O)Nc1cc(C(F)(F)F)ccc1N1CCOCC1 | -17% | -2% | 1%
COc1cccc2sc(N(CCN(C)C)C(=O)/C=C/c3cccs3)nc12 | 0% | -5% | -12%

This part in full, from the first entry:
SMILES | 2A StopGo | SARS PLP yeast | RE007 growth inh
C[C@@H]1COC(=O)[C@@H](CC(=O)OC(C)(C)C)C/C=C\C[C@@H](CC(=O)NCCO)C(=O)N1 | -13% | 16% | -12%
Cc1ccccc1C(=O)NC1CCN(CC(=O)Nc2ccc3c(c2)OCO3)CC1 | 8% | -3% | 3%
CN1CCN(C(=O)c2ccc3c(c2)S(=O)(=O)c2ccccc2C3=O)CC1 | -13% | -1% | -16%
COC(=O)C1=C(c2ccc(F)cc2OCc2ccccc2)C[C@@H]2CC[C@H]1N2C(=O)NCCN1CCOCC1 | -1% | 2% | -2%
CCOc1ncccc1C(=O)Nc1cc(C(F)(F)F)ccc1N1CCOCC1 | -17% | -2% | 1%
COc1cccc2sc(N(CCN(C)C)C(=O)/C=C/c3cccs3)nc12 | 0% | -5% | -12%
O=C1c2ccccc2C(=O)N1c1ccc(Br)c2cccnc12 | 17% | 0% | 11%
C[C@]12C(=O)N(c3ccc(F)cc3)C(=O)N1[C@H]1c3ccccc3OC[C@@H]1[C@H]2c1ccccc1 | -16% | 10% | -8%
COC(=O)C1=C(c2ccc(OC)c(OC)c2)C[C@@H]2CC[C@H]1N2C(=O)N1CCc2cc(OC)c(OC)cc2C1 | -20% | 0% | -5%
S=C(NC1CCCCC1)NN1CCOCC1 | -1% | 0% | -14%

Compounds shown so far that contain an aryl methoxy group:
SMILES | 2A StopGo | SARS PLP yeast | RE007 growth inh
COc1cccc2sc(N(CCN(C)C)C(=O)/C=C/c3cccs3)nc12 | 0% | -5% | -12%
COC(=O)C1=C(c2ccc(OC)c(OC)c2)C[C@@H]2CC[C@H]1N2C(=O)N1CCc2cc(OC)c(OC)cc2C1 | -20% | 0% | -5%

New compounds follow
SMILES | 2A StopGo | SARS PLP yeast | RE007 growth inh
COC(=O)[C@]1(CC(C)C)N[C@H](c2ccc(-c3cccc(Cl)c3)cc2)[C@@H]2C(=O)N(C)C(=O)[C@@H]21 | u | -22% | 1%
O=C(Nc1cc2c(cc1Br)OCCO2)c1ccc(=O)[nH]c1 | 3% | -2% | 6%
COc1ccc(-c2c(-c3cc(OC)cc(OC)c3)n(C)c3ccc(-c4ccc5c(c4)OCCO5)cc23)cc1 | -8% | 6% | 10%
Cc1ccc(S(=O)(=O)N(C)CC(=O)NNC(=O)CCNS(=O)(=O)c2cccc(C)c2)cc1 | -3% | 4% | 2%
O=C(NCc1ccccc1CN1CCCC1)c1cccc(S(=O)(=O)N2CCCC2)c1 | -4% | 7% | -1%
Cc1cc(C(=O)OCC(=O)NC2CCCC(C)C2C)c(C)o1 (configuration not stated) | -4% | 0% | 26%
C[C@H]1CN([C@@H](C)CO)C(=O)Cc2cc(NC(=O)CCC(F)(F)F)ccc2O[C@H]1CN(C)Cc1ccc(-c2ccccc2)cc1 | -25% | -4% | 10%
O=C(CCC(=O)c1ccc(Cl)s1)Nc1ncccc1O | 20% | -8% | -21%
O=C1[C@H]2CC3C=CC2(O3)[C@@H]2OCCCN12 (some centres not stated) | 10% | -7% | -4%
O=C1CNC(=S)N1Cc1ccccc1 | -12% | 1% | -16%

Grouped by structure: the entries above with two or more sulfur atoms (two)
SMILES | 2A StopGo | SARS PLP yeast | RE007 growth inh
COc1cccc2sc(N(CCN(C)C)C(=O)/C=C/c3cccs3)nc12 | 0% | -5% | -12%
Cc1ccc(S(=O)(=O)N(C)CC(=O)NNC(=O)CCNS(=O)(=O)c2cccc(C)c2)cc1 | -3% | 4% | 2%

(further entries)
SMILES | 2A StopGo | SARS PLP yeast | RE007 growth inh
O=C(Cn1cnc2c(NC(=O)OCc3ccccc3)ncnc21)NCCN1CCOCC1 | -22% | -3% | -8%
C/C(CCC(C)C)=N\Nc1ccc(S(N)(=O)=O)cc1[N+](=O)[O-] | u | 0% | -24%
Cc1ccccc1OCC(=O)N(Cc1nnc(-c2ccc(Cl)cc2)o1)C(C)C | 5% | -4% | -14%
O=C(CN1CCN(C(=O)CNC(=O)c2ccc3c(c2)OCO3)CC1)Nc1ccc(F)cc1 | -8% | -2% | 30%
N#Cc1ccc(S(=O)(=O)N2CCN(CC(=O)NCC3(N4CCOCC4)CCCCC3)CC2)cc1 | -11% | 0% | -3%
COc1ccc([C@H]2CC(=O)C=C(c3cc(Cl)ccc3OC)C2)cc1 | 2% | 2% | 13%
CC1CC(C)CN(C(=O)COC(=O)c2cn(C)c3ccccc23)C1 (configuration not stated) | -21% | 11% | -13%
Cc1c(C(=O)OCC(=O)N(C)CC(=O)Nc2ccc(F)cc2)oc2ccccc12 | -25% | 3% | -9%
O=C(Cc1ccccc1)NCC(=O)N1CCN(Cc2cccc(Cl)c2)CC1 | -14% | 2% | -9%
COCC(C)n1c(C)cc(C(=O)COC(=O)c2cccn2C)c1C (configuration not stated) | u | -1% | 0%
C=CC[C@H](CC(=O)N(CCO)Cc1ccccc1)C(=O)NCCOC(=O)[C@@H](CC=C)Cc1ccc(F)cc1 | u | -25% | -22%
O=C(CCNC(=O)c1ccccc1Cl)NCCCSc1ccccc1 | 1% | 14% | 1%
CCN(CC)S(=O)(=O)c1ccc(=O)[nH]c1 | -6% | -4% | -1%
CCCCCCSc1ccc(-c2nc3ccc(C)cn3c2NCc2ccccc2)cc1OC | -1%&-23% | 2% | -3%&-30%
C[C@H](CO)N1C[C@H](C)[C@@H](CN(C)C(=O)Nc2ccc(C(F)(F)F)cc2)Oc2c(NC(=O)NC3CCCCC3)cccc2C1=O | -21% | 3% | 3%
COC(=O)C1=C(c2ccc(F)cc2F)C[C@@H]2CC[C@H]1N2C(=O)N1CCCC1 | -19% | 0% | 8%
CC1(C)CC2CC(C)(CN2S(=O)(=O)c2ccccc2[N+](=O)[O-])C1 (configuration not stated) | -25% | -4% | 4%
CC(C)(C)[C@@H]1CCC(=O)N(CC[C@H](Sc2ccc(Br)cc2)c2ccccc2)CC1 | u | 0% | -2%
Cc1ccc2c(c1)C(=O)C(=O)N2c1ccc(Cl)cc1 | 0% | 0% | 13%
COc1ccc(-c2oc3ccc(-c4cc(OC)c(OC)c(OC)c4)cc3c2C#Cc2ccccn2)cc1 | u | 15% | 4%

Limited to SARS PLP yeast and 2A StopGo, for two of the compounds above:
| canonical_smiles | SARS PLP yeast | 2A StopGo |
| --- | --- | --- |
| N#Cc1ccc(S(=O)(=O)N2CCN(CC(=O)NCC3(N4CCOCC4)CCCCC3)CC2)cc1 | 0% | -11% |
| COc1ccc([C@H]2CC(=O)C=C(c3cc(Cl)ccc3OC)C2)cc1 | 2% | 2% |

(more compounds)
SMILES | 2A StopGo | SARS PLP yeast | RE007 growth inh
COc1ccc(-c2oc3ccccc3c2C#Cc2cncn2C)cc1 | 7% | 6% | -13%
CC(=O)c1ccc(NC(=O)C(C)Oc2ccc(N(C)S(=O)(=O)c3ccc(C)cc3)cc2)cc1 (configuration not stated) | -16% | 2% | 3%
COC(=O)C1=C(c2cccc(OCc3ccccc3)c2)C[C@@H]2CC[C@H]1N2C(=O)NCc1ccc2[nH]ccc2c1 | -14% | 1% | 0%
O=C(Cn1cnc2c(OCc3ccccc3)ncnc21)NCCN1CCOCC1 | -19% | -6% | 11%
COc1ccccc1NC(=O)COc1ccc(C(=O)NCC2CCCO2)cc1OC (configuration not stated) | -6% | 0% | 2%
COC(=O)CN(C#N)c1nc(NC(C)C)nc(NC(C)C)n1 | 1% | 0% | 0%
O=C(Cn1ccc(NC(=O)OCc2ccccc2)nc1=O)NCC1CCCO1 (configuration not stated) | u | 1% | 23%
Cc1ccccc1CC(=O)OCC(=O)Nc1ccc(C)c(S(=O)(=O)N2CCCCC2)c1 | u | 1% | -10%
O=C(OCCCc1cc2ccccc2c(=O)o1)c1ccco1 | 17% | -4% | -10%
COc1ccc([C@H]2CC(=O)C=C(c3cc4ccccc4c4ccccc34)C2)cc1 | 5% | -1% | 7%
O=C(c1cc(=O)[nH]c2ccccc12)N1CCN(S(=O)(=O)c2ccc(Cl)cc2)CC1 | u | -1% | 5%
N#CC(NC(=O)OCc1ccccc1)c1ccccc1 (configuration not stated) | 16% | -4% | 11%
CCCCn1c(N)c(N(CCC(C)C)C(=O)c2ccc(-c3ccc([N+](=O)[O-])cc3)o2)c(=O)[nH]c1=O | -22% | 11% | 2%
CSCCC(NC(=O)c1ccccc1)C(=O)NNC(=O)c1ccccc1 (configuration not stated) | 2% | 0% | 3%
O=C(C[C@@H]1C/C=C\C[C@H](Cc2ccc(F)cc2)C(=O)OC[C@@H](Cc2c[nH]c3ccccc23)NC1=O)NCCO | -27% | -7% | -7%
COc1ccc(NC(=O)C2(c3cccs3)CCOCC2)cc1 | -9% | -6% | 15%
C#CCOCCOCCOCCNc1nc(N2CCN(C(=O)[C@H](CCCN=C(N)N)n3cc(C(N)[C@@H](C)CC)nn3)CC2)nc(N2CCN(C(=O)[C@H](CC(N)=O)n3cc([C@@H](N)C(C)C)nn3)CC2)n1 (some centres not stated) | 10% | -3% | -2%
Cc1c(C(=O)NC(=S)N(Cc2ccccc2)c2ccccn2)cccc1[N+](=O)[O-] | 15% | -6% | -22%
COc1ccc(-c2oc(=O)c3cc(OC)c(OC)cc3c2/C=C/c2ccc(F)cc2)cc1 | -11% | -11% | 2%
C=CCn1c(SC(C)C(=O)NCC2CCCO2)nnc1-c1ccc(OC)cc1 (configuration not stated) | -3% | 1% | 4%
NC(=O)c1ccc(NC(=O)COC(=O)CCc2ccc(S(=O)(=O)N3CCCCC3)cc2)cc1 | -8% | -3% | -4%
O=C(COC(=O)c1ccc2ncsc2c1)NCc1ccc(Cl)cc1 | -19% | -10% | -12%
O=C(CSc1ccc([N+](=O)[O-])cc1)OCC(=O)N1CCCC1=O | -19% | -7% | -5%
CN(C)C(=O)CN1CCN(C(=O)CCl)CC1 | -19% | -2% | 14%
Cc1ccc(C2=NCCn3nc4cc([N+](=O)[O-])ccc4c32)cc1 | 35%[activator] | -4% | -3%
COc1cccc(C(=O)OCC(=O)c2ccc(Br)s2)c1OC | 31%[activator] | 8% | -9%
O=C(Cc1ccc(S(=O)(=O)N2CCCCC2)cc1)NCc1ccc(Cl)cc1 | -26% | -2% | -10%
COc1cc(OC)cc(OC(=O)C2CCN(C3=NS(=O)(=O)c4ccccc43)CC2)c1 | -18% | -2% | -16%
CCn1nc(C)c(NC(=O)c2ccc(Cl)cc2)c1C | -3% | 1% | 4%
Cc1occc1-c1nnc(SCC(=O)N2CCCCC2C)o1 (configuration not stated) | 16% | 0% | -1%
CSc1ncccc1C(=O)Nc1cccc(S(=O)(=O)N2CCOCC2)c1 | -8% | 6% | -2%
Cc1cccc(NC(=O)C(CC(C)C)NC(=O)C2CCC(C)CC2)n1 (configuration not stated) | -1% | -1% | -2%
COc1ccc(C(CNC(=O)c2cc3c(s2)CCC(C)C3)N2CCOCC2)cc1 (configuration not stated) | -25% | -2% | -4%
CCOC(=O)c1nc(Nc2ccc(Nc3ccccc3)cc2)c2ccccc2n1 | u | -15% | 24%
CN(C)c1ccc(/C=C/C=N/Nc2nc(N3CCOCC3)nc(N3CCOCC3)n2)cc1 | -24% | -2% | -9%
C=CCC[C@@H](Cc1ccc(F)cc1)C(=O)OCCNC(=O)[C@@H](CC=C)CC(=O)N[C@@H](CO)Cc1ccccc1 | -7% | 9% | -6%
COc1ccc([C@H]2CC(=O)C=C(c3cccc(Br)c3)C2)cc1OC | u | -8% | -16%
COc1ccc(-c2sc3cc4c(cc3c2C#CCO)OCO4)cc1 | -25% | -2% | -14%
COc1cccc(C(=O)N(Cc2ccco2)c2c(N)n(Cc3ccccc3)c(=O)[nH]c2=O)c1 | -17% | 3% | -8%
O=C(NCC1CCCO1)c1cncc(Br)c1 (configuration not stated) | 11% | 1% | 24%
COC(=O)C1=C(c2ccc(F)cc2F)C[C@@H]2CC[C@H]1N2C(=O)NCCOc1ccccc1Cl | -22% | -5% | 10%
O=C1NC(=O)/C(=C\c2ccc(Cl)nc2)S1 | 52%[activator] | -3% | -1%
CCSC1=NCCN1S(=O)(=O)c1ccc(NC(C)=O)cc1 | -17% | -1% | 1%

High-throughput results as filed in PubChem BioAssay.
